# FEN1 inh: qHTS Assay for the Inhibitors of Human Flap endonuclease 1 (FEN1) | actives 0.35% (n = 390,000) | Recombinant FEN1 flap cleavage, fluorescence, 15 min | Potency, µM (doses to about 114 µM), for inactives: at the top dose activity change, negative = inhibition, most hits filed as inhibitors | P39748; note: nearly all actives have a fitted effect of over 65% in size
# Target sequence (P39748 whole entry, looked up): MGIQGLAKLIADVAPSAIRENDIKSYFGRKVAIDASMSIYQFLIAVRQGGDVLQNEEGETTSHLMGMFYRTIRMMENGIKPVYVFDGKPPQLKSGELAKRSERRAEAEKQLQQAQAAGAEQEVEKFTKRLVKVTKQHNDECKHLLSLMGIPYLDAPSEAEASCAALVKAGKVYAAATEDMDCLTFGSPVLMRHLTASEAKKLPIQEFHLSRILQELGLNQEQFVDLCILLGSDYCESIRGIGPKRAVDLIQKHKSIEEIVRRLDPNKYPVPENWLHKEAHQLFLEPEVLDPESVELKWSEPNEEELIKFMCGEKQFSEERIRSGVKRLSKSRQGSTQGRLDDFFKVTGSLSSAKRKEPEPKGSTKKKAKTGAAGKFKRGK
#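 Concentration–response screening of FEN1 (10 nM): 15 min compound preincubation at room temperature, reaction started with 50 nM substrate and read at 0 and 15 min. Corrected, normalized data were fitted by a four-parameter Hill equation.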
# N370S GC: qHTS Assay for Inhibitors and Activators of N370S glucocerebrosidase as a Potential Chaperone Treatment of Gaucher Disease. Lysosomal acid glucosylceramidase (Homo sapiens), P04062. N370S GC spleen homogenate, 4MU-glucoside fluorescence. Potency, µM (titrated, usually from 59.4 µM), for the others: at the highest dose activity change, negative = inhibition, hits mostly inhibitors. actives 0.092% (n = 330,000). AID 2101, 2009;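 note: 0% = full enzyme activity and -100% = no enzyme basal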
# An asterisk follows results filed as active; ? = inconclusive; · = not tested or not shown; & = joins results of further samples. Calls come from the whole dose curve; as a rule, active = well fitted curve in the direction sought with a large enough effect; inconclusive = small, poorly fitted or top-dose-only effect, or another doubt; inactive = no such curve, though single readings can be large; an effect the other way counts as inactive or inconclusive. Unless noted, % is set by controls: 0 for no effect and ±100 for the full control effect; potency is the fitted concentration of half-maximal effect.
SMILES,FEN1 inh,N370S GC
O=C(COC(=O)/C=C/c1cccc(Cl)c1)Nc1ccc2[nH]c(=O)[nH]c2c1,6%,-5%
COc1ccccc1NC(=O)c1ccc2nc(-c3ccccc3)c(-c3ccccc3)nc2c1,-15%,-3%
CCCc1[nH]nc2c1C(c1cccc(OC(=O)c3ccco3)c1)C(C#N)=C(N)O2 (configuration not stated),-3%,21%
COc1ccc(NC(=O)c2cn(-c3ccccc3)nc2-c2ccncc2)cc1,2%,1%
Cc1ccc(C)c(NC(=S)c2ccc3ccccc3n2)c1,-1%,8%
C=CCNc1nc(N2CCOCC2)c(C#N)c2c1CN(C)CC2,-1%,-2%
COc1ccccc1CNC(=O)Cn1c(-c2ccc(F)cc2)cc(C(C)=O)c1C,1%,·
CN1CCN(Cc2c(O)ccc3cc(Br)ccc23)CC1,8%,-8%
CCOC(=O)N1CCN(CCC(=O)c2ccc(OC)cc2)CC1,11%,10%
C#CCNC(=O)c1cc2sccc2n1C,0%,1%
O=c1/c(=C\c2cccc(O)c2)sc2nc(-c3ccccc3)c(-c3ccccc3)n12,1%,4%
O=C(NCC(=O)N1CCN(c2ccc([N+](=O)[O-])cc2)CC1)c1ccco1,11%,·
Cc1ccc(NC(=O)CN(C)C(=O)COC(=O)C(C)(C)Oc2ccc(Cl)cc2)cc1,-13%,1%
COCc1cc(C)nc2sc3c(=O)oc(C)nc3c12,-6%,10%
COC(=O)N/N=C/c1ccc(/C=N/NC(=O)OC)cc1,-9%,1%
CCCc1nnc(NC(=O)c2cccc(OC)c2)s1,6%,9%
COc1ccc(NC(=O)Nc2ccc3c(c2)C(=O)N([C@H](C)CO)C[C@H](C)[C@@H](CN(C)C(=O)Nc2ccc(OC)cc2)O3)cc1,12%,·
C1=CC2C3C=CC(C3)C2C1 (configuration not stated),5%,7%
O=C(c1ccccc1)c1ccccc1N/C=C/c1nnnn1-c1ccccc1,5%,22%
NC1=NS(=O)(=O)NC1c1cccc(F)c1 (configuration not stated),10%,8%
COc1ccc(-c2ccc(-c3nnn(CC(C)=O)n3)cc2)cc1,-4%,-14%
CCOc1ccccc1C(=O)NCCC(=O)O,5%,2%
COC(=O)[C@H](C)NC(=O)Nc1cccc(C(F)(F)F)c1,8%,11%
O=Cc1ccc(-c2ccc(F)cc2)o1,13%,10%
Cc1cc(-c2nc(C)c(-c3nnc(SCC(=O)Nc4ccc(Cl)cc4)n3C)s2)no1,3%,-24%

# Next part:
SMILES,FEN1 inh,N370S GC
CC(=O)N1CCCc2cc(S(=O)(=O)N3CCC(C(=O)Nc4c(C)cccc4C)CC3)ccc21,-9%,·
O=C(NCC(=O)N1CCCC(C(F)(F)F)C1)c1ccc2ccccc2c1 (configuration not stated),9%,-11%
O=C(OCC(=O)N1CCN(C(=O)c2ccco2)CC1)c1cc(-c2ccc(Cl)c(Cl)c2Cl)nc2ccccc12,-4%,15%
C=CCOC(=O)C1=C[C@H](c2csc3ccccc23)[C@@H](CCCO)[C@H](OCC)O1,-27%,7%
CO[C@@]1(NC(=O)CSCC#N)C(=O)N2C(C(=O)O)=C(CSc3nnnn3C)CS[C@@H]21,-1%,1%&2%
COC(=O)c1c(NC(=O)CC2SC(N)=NC2=O)sc2c1CCCC2 (configuration not stated),4%,-6%
O=C(C1COc2ccccc2O1)N1CCN(c2ccc(F)cc2)CC1 (configuration not stated),-9%,3%
CCOC(=O)NC(=O)CSc1nc2ccccc2[nH]1,-3%,4%
COC(=O)Cn1c(CN2CCN(C(=O)c3ccco3)CC2)nc2c1c(=O)n(C)c(=O)n2C,18%,-4%
CCOC(=O)c1ccc(NC(=O)NCc2ccccc2)cc1,-24%,6%
COc1cccc(-c2cc(C(=O)N3CCc4ccccc4C3)no2)c1,?,8%
Cc1cc(C)c(S(=O)(=O)Cc2ccc(Cl)cc2)c(=O)[nH]1,12%,6%
COc1ccc(N2CC(C(=O)NCc3nnnn3-c3ccc(C)c(C)c3)CC2=O)cc1 (configuration not stated),15%&19%,-20%
Cc1cccc(OCC(=O)Nc2nnn(C)n2)c1C,4%,-2%
CC(=O)NC(Cc1ccc(F)cc1)C(=O)O (configuration not stated),3%,1%
C[C@]12c3[nH]c4ccc(Cl)cc4c3CCN1C(=O)[C@@H](CC(=O)NCCN1CCOCC1)C[C@@H]2C(=O)N1CCOCC1,13%,·
COc1cc(NC(=S)Nc2ccc(N(C)C(C)=O)cc2)cc(OC)c1,-2%,18%
COC(=O)c1ccc(OCC2c3cc(OC)c(OC)cc3CCN2C(C)=O)cc1 (configuration not stated),5%,-27%
CN1CCN(c2ccc(NC(=O)c3ccc(Oc4ccccc4)cc3)cc2)CC1,0%,1%
CCc1nn(CCCC(=O)N2CCC(C)CC2)c(=O)c2cc3occc3n12,0%,-2%
CN(Cc1nc2ccccc2n1C)S(C)(=O)=O,0%,18%
Cc1ccccc1NS(=O)(=O)c1ccc(N2CCCC2=O)cc1,-11%,4%
O=C1/C(=N\S(=O)(=O)c2cccs2)C([n+]2cccc(Cc3ccccc3)c2)=C([O-])c2ccccc21,2%,2%
Cc1ccc(-c2nnc(Nc3ccc(OC(F)(F)Cl)cc3)c3ccccc23)cc1S(=O)(=O)NC(C)(C)CO,-8%,·
Cc1ccc2c(c1)CC1(CN2C)C(=O)OC2(CCCCC2)OC1=O,5%&-13%,1%

# Remaining list, next part:
SMILES,FEN1 inh,N370S GC
Cc1nc(NC(=O)CSc2ccc(-c3nc4ccccc4[nH]3)cn2)sc1C,-12%,-15%
COc1ccc(N2CCN(C3CCCN(C(=O)c4cccc(C)n4)C3)CC2)cc1 (configuration not stated),-7%,-1%
CCN(CC)C(=O)c1ccccc1NS(=O)(=O)c1ccc(C)cc1,2%,?
CCCCc1cc2c(c(NC(=O)CC)n1)c(=O)oc1ccccc12,-6%,8%
O=C(O)c1ccc(Oc2cccc([N+](=O)[O-])c2)cc1C(=O)O,9%,5%
COc1cc(CSc2ncc(CO)n2Cc2ccc(C)cc2)cc(OC)c1,-18%,·
Clc1ccc(Nc2ccc(-n3ccnc3)nn2)cc1Cl,-10%,-4%
COCCNC(=O)c1onc(CSc2ccc(Cl)cc2)c1C(=O)O,20%,9%
Cc1cccc(C)c1Nc1nnc(SCc2cn3cccc(C)c3n2)s1,18%,8%
CSc1ncccc1C(=O)OCC(=O)NCCC1=CCCCC1,9%,-5%
CCCCCCCC(=O)OCC(=O)[C@@]1(O)CC[C@H]2[C@@H]3CCC4=CC(=O)CC[C@]4(C)[C@H]3[C@@H](O)C[C@@]21C,-19%,-7%
Cc1cccc(C(=O)NCCC(=O)NCc2ccccc2Cl)c1,5%,·
COc1ccc(N2CCN(C(=O)NCc3ccc(OC)c(OC)c3)CC2)cc1,3%,-23%
COc1ccc(C2C=C(c3ccc(F)cc3)NC(=S)N2)cc1OC (configuration not stated),-2%,-2%
CCc1cccc(NC(=O)C2CCN(S(=O)(=O)c3cccs3)CC2)c1,3%,0%
Cc1ccc2c(c1)C1CN(C)CCC1N2C(=O)c1cccc(S(=O)(=O)N(C)C)c1 (configuration not stated),5%,2%
O=C(Cn1cc(S(=O)(=O)N2CCCC2)c(S(=O)(=O)N2CCCC2)c1)NCc1ccco1,-12%,-5%
Cc1ccccc1NC(=O)CCNS(=O)(=O)c1ccc2c(c1)CCC(=O)N2,11%,-5%
CCC(=O)Nc1ccc(C(=O)c2ccccc2)cc1,4%,3%
COc1ccc(CN(CC(=O)NCc2ccc(F)cc2)C(=O)CCC(=O)Nc2cc(C)ccn2)cc1,-5%,1%
CCN(c1ccccc1)S(=O)(=O)c1c[nH]c2ccc([N+](=O)[O-])cc12,-19%,-11%
CC(=O)c1cnn(-c2cc(Oc3cccc(C)c3)ncn2)c1C,25%,3%
CCOC(=O)N1CCN(C(=O)CSc2ncccn2)CC1,-5%,5%
CC(C)(C)c1ccc(S(=O)(=O)NC(Cc2ccccc2)C(=O)O)cc1 (configuration not stated),9%,-2%
Cc1cccc(OCC(=O)NCCCNC(=O)c2cccnc2)c1,-11%,1%

# Remaining list, next part
SMILES,FEN1 inh,N370S GC
C=CCOc1ccc(/C=C/C(=O)OCC(=O)NCCc2ccccc2)cc1,-1%,-7%
CCc1cc(CNC(=O)c2ccc(OC3CCN(C(C)=O)CC3)c(OC)c2)on1,-3%,1%
NC(=O)c1cccc(N)c1,·,-2%&-1%&17%&11%
Cc1cc(C)cc(NS(=O)(=O)c2ccc(NC(=O)C3CCCCC3C(=O)O)cc2)c1 (configuration not stated),3%,2%
Cc1ccc(C(=O)NCC(c2cccnc2)N2CCc3ccccc3C2)cc1C (configuration not stated),11%,·
CCc1ccc(N2CC(c3nc4ccccc4n3Cc3ccccc3C)CC2=O)cc1 (configuration not stated),-6%,·
Clc1ccc(Nc2nc(NCCN3CCOCC3)nc(N3CCOCC3)n2)cc1,-9%,-24%
CC(C)C(NC(=O)c1ccc(Br)cc1)C(=O)NC1=NCCS1 (configuration not stated),-9%,-2%
COC(=O)c1ccc(C)c(NC(=O)c2ccc(CN3CCc4ccccc4C3)cc2)c1,2%,-14%
Cc1cc2oc(C(=O)NCc3ccncc3)c(C)c2cc1C,11%,-2%
C=C(C)C(=O)Nc1cccc(C2=NOC3(C2)C[C@H](C(N)=O)N(C(=O)C(c2ccccc2)c2ccccc2)C3)c1 (some centres not stated),-6%,22%
CN1C(=O)/C(=C/C=C2\SCCN2C)N(C)C1=S,3%,-10%
COc1cccc(NC(=O)CN2C(=O)CSc3ccc(S(=O)(=O)N4CCOCC4)cc32)c1,3%,-1%
CCOC(=O)c1cc(CC)sc1N1C(=O)CC(Sc2ncccc2C(=O)O)C1=O (configuration not stated),-3%,-3%
C[C@H](CO)N1C[C@H](C)[C@@H](CN(C)S(C)(=O)=O)Oc2ccc(NC(=O)CCN3CCOCC3)cc2C1=O,1%,·
Cc1ccccc1NC(=O)NNC(=O)c1ccc2ccccc2c1O,-19%,?
CCO[C@@H]1OC(C(=O)NC2CC2)=C[C@H](C)[C@H]1CCCO,6%,-3%
CCCn1cnc2c(sc3nc4c(cc32)CSC(C)(C)C4)c1=O,2%,-5%
CC1=C(C(=O)OCC2CCCO2)C(c2coc3ccc(C)cc3c2=O)C2=C(CCCC2=O)N1 (configuration not stated),1%,3%
Cc1ccc(S(=O)(=O)NCCC(=O)Oc2ccc3ccc(=O)oc3c2)cc1,-4%,?
N#C/C(=C\c1cccs1)Sc1nc2ccccc2s1,-16%,?
C=CCOc1cccc(C2C(C(=O)c3ccco3)=C(O)C(=O)N2Cc2cccnc2)c1 (configuration not stated),8%,-12%
Cc1ccc(NC(=O)CSCc2cc(=O)n3cc(C)sc3n2)cc1,-3%,-23%
CSc1cccc(NC(=S)N2CCC(N(C)C3CCCCCC3)CC2)c1,-1%,-15%
CCc1c(C)sc(NC(=O)c2cccs2)c1C(N)=O,-1%,3%

# Sorted by value in N370S GC (smallest number first): some entries from above
structure | N370S GC
COc1ccc(N2CC(C(=O)NCc3nnnn3-c3ccc(C)c(C)c3)CC2=O)cc1 (configuration not stated) | -20%
COC(=O)c1c(NC(=O)CC2SC(N)=NC2=O)sc2c1CCCC2 (configuration not stated) | -6%
CCOC(=O)N1CCN(CCC(=O)c2ccc(OC)cc2)CC1 | 10%
C=C(C)C(=O)Nc1cccc(C2=NOC3(C2)C[C@H](C(N)=O)N(C(=O)C(c2ccccc2)c2ccccc2)C3)c1 (some centres not stated) | 22%

# Six consecutive entries out of the list so far, quoted:
SMILES,FEN1 inh,N370S GC
COC(=O)Cn1c(CN2CCN(C(=O)c3ccco3)CC2)nc2c1c(=O)n(C)c(=O)n2C,18%,-4%
CCOC(=O)c1ccc(NC(=O)NCc2ccccc2)cc1,-24%,6%
COc1cccc(-c2cc(C(=O)N3CCc4ccccc4C3)no2)c1,?,8%
Cc1cc(C)c(S(=O)(=O)Cc2ccc(Cl)cc2)c(=O)[nH]1,12%,6%
COc1ccc(N2CC(C(=O)NCc3nnnn3-c3ccc(C)c(C)c3)CC2=O)cc1 (configuration not stated),15%&19%,-20%
Cc1cccc(OCC(=O)Nc2nnn(C)n2)c1C,4%,-2%

# Random excerpt: 5 entries already listed.
SMILES,FEN1 inh,N370S GC
COc1cccc(-c2cc(C(=O)N3CCc4ccccc4C3)no2)c1,?,8%
Cc1cccc(C(=O)NCCC(=O)NCc2ccccc2Cl)c1,5%,·
CCc1c(C)sc(NC(=O)c2cccs2)c1C(N)=O,-1%,3%
Cc1ccc(C(=O)NCC(c2cccnc2)N2CCc3ccccc3C2)cc1C (configuration not stated),11%,·
O=c1/c(=C\c2cccc(O)c2)sc2nc(-c3ccccc3)c(-c3ccccc3)n12,1%,4%

# Next part:
SMILES,FEN1 inh,N370S GC
COc1ccc(C)cc1NC(=O)c1cccc(C(=O)Nc2cc(C)ccc2OC)n1,-5%,-12%
COc1cccc(C2=NOC(C(=O)Nc3ccc(C(C)=O)cc3)C2)c1 (configuration not stated),-12%,10%
COc1cccc(C(=O)Nc2cc3c(cc2C(C)=O)OCCO3)c1,-24%,9%
COC(=O)C(C)n1nc(C)n(-c2ccc(C)cc2)c1=O (configuration not stated),-2%,1%
CN(C)/C=N/c1cc(=O)[nH]c(=O)n1C,22%,12%&10%
Cc1ccc2c(c1)C(=O)CC1(CCCC1)O2,-4%,22%
CCCn1c2ccccc2c2cnn(CC(=O)NCCc3ccc(OCC)c(OCC)c3)c(=O)c21,4%,·

# The list is partial, and most or all hits are left out here.
